# Assay outcomes deposited in PubChem BioAssay by National Center for Advancing Translational Sciences (NCATS).
# VDR inh: blocks the human vitamin D receptor; VDR-SRC2-3 peptide fluorescence polarization, 2 h; Potency, µM, for inactives: max response, negative = inhibition, usual class: inhibitors; actives 0.93% (n = 400,000); AID 504847; active = well fitted inhibition curve with a large enough effect; inconclusive = small, poorly fitted or top-dose-only effect, or another doubt; inactive = no such curve, though single readings can be large or run the other way; note: series mostly up to about 120 µM
# Target sequence (P11473 whole entry, looked up): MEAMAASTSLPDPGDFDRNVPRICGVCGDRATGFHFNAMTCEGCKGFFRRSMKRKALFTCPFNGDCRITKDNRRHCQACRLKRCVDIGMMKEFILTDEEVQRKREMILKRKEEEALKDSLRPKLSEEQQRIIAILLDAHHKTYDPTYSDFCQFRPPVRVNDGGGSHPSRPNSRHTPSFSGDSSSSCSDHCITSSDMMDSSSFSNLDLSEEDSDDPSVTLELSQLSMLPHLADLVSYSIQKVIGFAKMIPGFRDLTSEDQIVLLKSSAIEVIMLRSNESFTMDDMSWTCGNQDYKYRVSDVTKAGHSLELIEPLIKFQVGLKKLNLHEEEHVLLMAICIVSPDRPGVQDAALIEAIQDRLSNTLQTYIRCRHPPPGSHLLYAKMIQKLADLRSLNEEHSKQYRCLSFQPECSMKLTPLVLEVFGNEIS
#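 FP read-out; VDR + SRC2-3 coactivator peptide; 23 nl compound by pintool; 2 h RT incubation; reagents held at 4 deg C, protected from light.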
# * = called active by the depositor; ? = inconclusive; & = joins results of further samples. % is set by controls: 0 for no effect and ±100 for the full control effect; potency is the fitted concentration of half-maximal effect.
SMILES,VDR inh
O=C(Nc1cccc(Cl)c1N1CCOCC1)c1ccc([N+](=O)[O-])o1,-16.7%
CC(=O)Nc1ccc(NC(=O)CC(C)n2ccc(C)n2)cc1 (centres undefined),-1.6%
Cn1c(=O)cc(SCC(=O)Nc2cccnc2)c2ccccc21,3.9%
CSCCC(NS(=O)(=O)c1ccccc1F)C(=O)Nc1cccc(C)n1 (centres undefined),10.8%
O=C(CSc1nc2c(sc3ccccc32)c(=O)n1CCO)NCC1CCCO1 (centres undefined),-12.0%
Cc1ccc(Sc2sc(=O)n(C)c2S(=O)(=O)c2ccc(C)cc2)cc1,-12.0%
CC1=CC(C)(C)NC(=S)N1c1ccc(N(C)C)cc1,-14.8%
COc1ccc(NC(=O)N2CCCCC2c2cccnc2)cc1 (centres undefined),10.5%
CCOc1ccc(CCNC(=O)c2ccc3nc(N4CCC(C)CC4)sc3c2)cc1OCC,6.1%
COc1ccc(CCNC(=O)c2cccc(S(=O)(=O)NC(C)c3ccccc3)c2)cc1 (centres undefined),-7.2%
Cc1ccc(N=C(N(C)C)P(=O)(N(C)C)N(C)C)c(C)c1,12.7%
COc1ccc(OC)c(C(=O)NC2CCSc3ccccc32)c1 (centres undefined),-2.6%
Cc1cccc(N2CCN(S(=O)(=O)c3cn(C)c(C)n3)CC2)c1C,7.0%
CCC1(C)Cc2c(sc3c2c(=O)n(C)c2nnc(SCc4ccccc4)n32)CO1 (centres undefined),14.8%
Cn1cnnc1SC(C(=O)Nc1ccc(F)cc1)c1ccccc1 (centres undefined),6.4%
FC(F)(F)c1ccc(/C=N/n2c(COc3ccccc3)n[nH]c2=S)cc1,-12.6%
CCc1ccc(NS(=O)(=O)c2ccc3[nH]cc(C(=O)NCc4ccc(C)cc4)c(=O)c3c2)cc1,-8.6%
CS(=O)(=O)Nc1ccccc1C(=O)NCCSc1ccccc1,-12.6%
CCCN=C1N(C)C[C@@H]2[C@@H]3C(=O)N(C)C(=O)[C@@H]3[C@](CC)(C(=O)OC)N12,-19.2%
Cc1cc(OCCOCCN(C)C)ccc1Cl,-10.7%
O=[N+]([O-])c1nn(-c2ccc3c(c2)OCCO3)n(O)c1=NCc1ccc(F)cc1,-6.7%
Cc1cccc(N2CCN(C(=O)CN(C)S(=O)(=O)c3ccc4c(c3)CCC(=O)N4)CC2)c1C,-4.9%
CCN1CCN(c2ncc3c(n2)CCN(Cc2ccccc2C)C3)CC1,-3.7%
CCCCC(=O)Nc1ccc(NC(=S)NC(=O)CC(C)C)cc1OC,-4.4%
Cc1ccc(N2CC(C(=O)NC3CC3)CC2=O)cc1Cl (centres undefined),0.1%
Brc1ccccc1-c1nnc2sc(-c3ccc4c(c3)OCCO4)nn12,9.3%
O=C(NC1CC1)c1ccc(Cn2c(SCc3cccc(F)c3)nc3cccnc32)cc1,0.7%
CNC(=O)/C(=C\c1cccc(Oc2ccccc2)c1)NC(=O)c1ccccc1,8.1%
CN(C)S(=O)(=O)c1cccc(NC(=O)COC(=O)c2cccn2C)c1,0.8%
Cn1nc(-c2ccccc2F)c2cc(C(=O)NCc3cccc(Cl)c3)sc21,-17.6%

# Reprinted at random: 2 compounds from above.
SMILES,VDR inh
CCCCC(=O)Nc1ccc(NC(=S)NC(=O)CC(C)C)cc1OC,-4.4%
O=C(NC1CC1)c1ccc(Cn2c(SCc3cccc(F)c3)nc3cccnc32)cc1,0.7%

# 4 entries out of the list, sorted by molar mass, ascending.
SMILES,VDR inh
Cc1ccc(N2CC(C(=O)NC3CC3)CC2=O)cc1Cl (centres undefined),0.1%
CCCCC(=O)Nc1ccc(NC(=S)NC(=O)CC(C)C)cc1OC,-4.4%
CNC(=O)/C(=C\c1cccc(Oc2ccccc2)c1)NC(=O)c1ccccc1,8.1%
O=C(NC1CC1)c1ccc(Cn2c(SCc3cccc(F)c3)nc3cccnc32)cc1,0.7%

# The listing continues:
SMILES,VDR inh
CCC(C(=O)OCC(=O)N(C)c1c(N)n(Cc2ccccc2)c(=O)[nH]c1=O)c1ccccc1 (centres undefined),-7.5%
CC(C)N1C(=O)C(O)(c2c[nH]c3ccccc23)c2ccccc21 (centres undefined),0.4%
O=C(COc1ccc(S(=O)(=O)N2CCCCC2)cc1Cl)N1CCOCC1,-1.4%
Cc1ccc(NC(=O)CNC(=O)c2ccco2)cc1Cl,-13.0%
COc1ccc(NC(=O)Nc2cccc3c2O[C@H](CN(C)S(=O)(=O)c2c(C)noc2C)[C@@H](C)CN([C@H](C)CO)C3=O)cc1,3.9%
COc1ccc(/C(N)=N/OC(=O)c2ccc3c(c2)OCO3)cc1OC,12.8%
Cc1ccc(Nc2nnc(SCc3cc(=O)n4ccsc4n3)s2)c(C)c1,1.9%
Cc1cc(NC(=O)c2ccc(Br)c([N+](=O)[O-])c2)no1,4.4%
Cc1ccc(-c2noc(CCCc3ccccc3)n2)cc1,-5.7%
COc1cc(OC)cc(N(C(=O)CNC(=O)c2cccs2)C(C(=O)NCC2CCCO2)c2ccccc2)c1 (centres undefined),-9.2%
O=C1/C(=C\c2ccc(O)cc2)CCC1CNc1ccc(Cl)cc1 (centres undefined),79.4µM*
CCOC(=O)CNC(=O)c1cc2c(=O)n3cccc(C)c3nc2n1C,-2.1%
CC(C)[C@H]1COC(c2cc(Cl)cc(Cl)c2)=N1,-20.3%
O=C(O)CNC(=O)c1ccc(Sc2ccccc2)c([N+](=O)[O-])c1,-8.2%
N#CC1=C(N)Nc2nc3ccccc3n2C1c1ccc(F)cc1 (centres undefined),11.9%
COc1cc(C(=O)NCCCN2CCCC2=O)cc(Br)c1OCc1ccccc1,1.6%
COc1ccc(/C(C)=N/Nc2ccc(F)cc2F)c(O)c1,-6.4%
COc1ccc(NC(=O)CN(C)C(=O)c2c(-c3ccccc3Cl)noc2C)cc1,1.7%
COc1ccc(C(=O)CSc2nnc(COc3ccccc3)n2Cc2ccco2)cc1,-7.8%
CCN(CC)S(=O)(=O)c1cc(NC(=O)NCCCl)ccc1C,-13.5%
COc1ccc(NC(=O)c2ncn(-c3ccccc3)n2)cc1Cl,-16.4%
CC(C)Cn1c(-c2csc3ccccc23)n[nH]c1=S,-23.9%
CC(Sc1ccccc1)C(=O)N/N=C/c1cccnc1 (centres undefined),6.2%
O=C1OCCN1C(=O)[C@H]1[C@H](c2ccc(F)cc2)C(c2ccc(F)cc2)=NN1c1ccc(Br)cc1,-9.5%&-11.3%
COC(=O)c1ccc(NS(=O)(=O)c2ccc3[nH]c4c(c3c2)CCCC4)cc1,2.5%
O=C(C1=NN(c2ccccc2)C(=O)CC1)N1CCc2ccccc2C1,-7.9%
Nc1nnc(SCC(=O)OCC(=O)Nc2ccc(Br)cc2F)s1,?
COC(=O)c1c(-c2ccc(S(C)(=O)=O)cc2)sc2ccc(OC)cc12,-11.6%
COc1ccc2cc3cc(C(=O)Nc4cc(C)c(Cl)cc4OC)oc3nc2c1,-4.7%
Cc1ccc(C)c(N2CCN(C(=O)c3cc(S(=O)(=O)N4CCC(C)CC4)cn3C)CC2)c1,2.6%

# Records listed so far marked active in VDR inh:
SMILES,VDR inh
O=C1/C(=C\c2ccc(O)cc2)CCC1CNc1ccc(Cl)cc1 (centres undefined),79.4µM*

# More structures follow.
compound | VDR inh
CCOC(=O)C(C(=O)OCC)C(C)C#CCN1CCCCC1 (centres undefined) | 5.6%
COC(=O)c1sccc1S(=O)(=O)N1CCN(c2ccccc2)CC1 | -2.4%
CCOC(=O)/C(=C\C=C1/Sc2cc(OCC)c(OCC)cc2N1CC)C(C)=O | ?
CN(C)/C=C1/C=C(c2ccccc2)OC1=O | ?
O=C(N/N=C\c1cccnc1)c1ccc(Cl)s1 | -5.9%
CCn1c(CN2CCOCC2)nnc1SCC(=O)Nc1ccccc1Cl | 1.0%
COc1ccc(-c2nnc(Nc3ccc(OCC(N)=O)cc3)c3ccccc23)cc1 | -4.0%
CCCN(CC(=O)Nc1ccccc1OC)C(=O)C1CCCC1 | 7.6%
O=C(CCCSc1nnc(Nc2ccccc2F)s1)N1CCOCC1 | 16.0%
CC(C)NC(=O)NC(=O)CSc1nncn1C | -3.5%
COc1ccc(OC)c(C(=O)COC(=O)C(CCSC)NC(=O)COc2ccccc2)c1 (centres undefined) | -11.4%
CCOc1cc(/C=N/NC(=O)C(C)Sc2ccccn2)ccc1O (centres undefined) | -7.7%
O=C(COC(=O)/C=C/c1ccc(S(=O)(=O)N2CCOCC2)cc1)NCc1ccccc1 | 6.3%
O=Cc1c(Nc2cccc(C(F)(F)F)c2)nc2ccccn2c1=O | -4.8%
Cc1nn(C)c(Oc2ccc(Cl)cc2)c1C(=O)O | -20.1%
COc1ccc(NC(=O)CSc2ccc(F)cc2)cc1S(=O)(=O)N1CCCCC1 | 13.4%
O=C(CSc1nnnn1Cc1ccccc1)c1ccccc1 | -12.0%
N#CCC(=O)Nc1ccc(C(=O)NNC(=O)c2ccccc2-n2cccc2)cc1 | -23.2%
CSc1ncccc1C(=O)N1CCN(S(=O)(=O)c2ccc3c(c2)OCCO3)CC1 | -1.5%
COc1ccc(NC(=O)c2sc3nc(N4CCOCC4)c4c(c3c2N)CC(C)(C)OC4)c(OC)c1 | -22.3%
CC(C)(C)c1ccc(OCC(=O)N/N=C/c2cc(Br)ccc2OC(=O)c2ccco2)cc1 | -18.4%
CC1CCN(C(=O)CN2C(=O)NC3(CCCCCC3)C2=O)CC1 | -1.4%
N=c1c(C(=O)NCCc2ccccc2)cc2c(=O)n3ccccc3nc2n1CCCN1CCOCC1 | 1.3%
CCOC(=O)Cc1ncccc1C(=O)Nc1ccc(Oc2ccccc2)cc1 | 5.6%
OCC[C@@H]1C[C@@H](O)[C@H](O)[C@@]2(Cc3ccccc3CCO2)O1 | 11.5%
CC1(C)OC(C)(C)/C(=C/Nc2ccc(O)cc2)C1=O | -3.7%
COc1ccc(-c2cc3c(=O)n(CC(=O)N4CCN(C)CC4)ncn3n2)cc1 | -22.4%
C/C(N)=C(/C#N)C(=O)COC(=O)CNS(=O)(=O)c1ccc(F)c(F)c1F | 5.5%
COC(=O)c1ccc(C2C3=C(Nc4nnnn42)c2ccccc2OC3)cc1 (centres undefined) | ?
Cc1ccc(C(=O)Nc2c(-c3cccs3)c(=O)c3ccccc3n2C)cc1 | 11.9%
O=C(CSc1nnc2ccccn12)NCCc1ccc(Cl)cc1 | 6.2%
Cc1cccc(CNc2ccnc(-c3ccccc3Cl)n2)c1 | -10.7%
COc1ccccc1N1CCN(C(=O)c2cc3cc(F)ccc3[nH]2)CC1 | -17.5%
O=C(CSc1nc2c([nH]c3ccccc32)c(=O)n1-c1ccccc1)Nc1ccc2c(c1)OCCO2 | 18.5%
COc1ccc(C(NC(=O)c2ccco2)c2ccc(OC)c(OC)c2)cc1OC | 8.0%
O=C(Nc1nnc(C2CC2)o1)c1ccc(S(=O)(=O)N2CCCCC2)cc1 | -10.3%
COc1ccc(-c2csc(NC(=O)C3CC(=O)N(Cc4ccco4)C3)n2)cc1 (centres undefined) | -3.8%
CCOc1ccc(C2=NC(c3ccc(OC)cc3)=Nc3ccc(Cl)cc3N2)cc1 | 2.3%
Cc1cc(S(=O)(=O)NCC(c2ccc(N(C)C)cc2)N2CCOCC2)ccc1F (centres undefined) | 11.2%
CCC1OC(=O)C(C)[C@@H](O[C@H]2C[C@@](C)(OC)C(O)C(C)O2)C(C)[C@@H](O[C@@H]2OC(C)CC(N(C)C)C2O)[C@@](C)(O)CC(C)C2NC(COCCOC)O[C@H](C2C)[C@@]1(C)O (some centres undefined) | 0.4%
CC(NS(=O)(=O)c1ccccc1)C1COc2ccccc2O1 (centres undefined) | -0.7%
Cc1ccc(C(C(=O)NC2CCCC2)N(Cc2ccco2)C(=O)CCC(=O)Nc2ccccn2)cc1 (centres undefined) | -12.7%
O=C(CN1CCCC1)Nc1nc(-c2ccc3c(c2)CCN3C(=O)c2ccccc2F)cs1 | 9.0%
CCOc1ccccc1NC(=O)COC(=O)Cc1ccc(-c2ccccc2)cc1 | -6.9%
O=C(NOC(=O)c1ccccc1)c1ccccc1 | 2.2%
CC(C)(C)c1ccccc1NC(=O)CN1C(=O)NC2(CCCCCC2)C1=O | 2.4%
Cc1c(NS(=O)(=O)c2ccc([N+](=O)[O-])cc2)c(=O)n(-c2ccccc2)n1C | -10.2%
CC1CCc2c(sc(NC(=O)c3ccc(Cl)cc3Cl)c2C#N)C1 (centres undefined) | -17.3%
CC1=NN(c2nc(-c3ccc(C#N)cc3)cs2)C(=O)C1 | 1.8%
O=C(NCC1CCCCC1)c1cc(Br)ccc1Cl | 12.2%
COc1ccc2c(=O)c(C)c(-c3ccccc3)oc2c1CN(C)C | 2.9%
CC(C)c1onc(C(=O)N2CCN(C(c3ccccc3)c3ccccc3)CC2)c1[N+](=O)[O-] | -20.0%
O=C(NC(=S)Nc1ccc(N2CCOCC2)c(Cl)c1)c1sc2ccccc2c1Cl | -2.9%
C[C@]12C(=O)N(c3ccc(F)cc3)C(=O)N1[C@@H]1c3ccccc3OC[C@@H]1[C@H]2c1ccccc1 | 3.8%
O=C(CCc1ccccc1)Nc1cc(S(=O)(=O)N2CCOCC2)ccc1N1CCCC1 | 0.1%
Cc1nc(Cl)c(C(=O)Nc2cccc(F)c2)c(C)c1Cl | 1.1%
COc1ccc2ccccc2c1C1CC(=O)N2CN(C3CCCCC3)CSC2=C1C#N (centres undefined) | 89.1µM*
COc1ccc(C2=NN(C(=O)CCC(=O)O)C(c3cccs3)C2)cc1 (centres undefined) | -1.5%
CC(=O)c1cccc(NC(=O)Nc2c(C)n(C)n(-c3ccccc3)c2=O)c1 | 5.7%
COc1cc(CC(=O)NCc2cccs2)cc(OC)c1OC | -3.9%

# (more compounds)
compound | VDR inh
CNC(=S)Nc1cc(Cl)ccc1Oc1ccccc1 | 22.5%
COc1cc(/C=N/NC(=S)Nc2cccc(C(=O)O)c2)cc(OC)c1OC | 3.3%
Cn1c(C(C#N)C(=O)c2sc3ccccc3c2Cl)nc2ccccc21 (centres undefined) | 4.9%
Cc1nc(CC(=O)NNS(=O)(=O)c2ccc3ccccc3c2)cs1 | -12.1%

# Not all compounds are listed; the hit share may differ from the screen's.
